From PubChem
Mtb hypoxia inh: reduces hypoxia-regulated biosensor signal in M. tuberculosis. hit rate 0.1% among 300,000. fluorescence inhibition, % (test concentration not listed). M. tuberculosis hypoxia-regulated fluorescent reporter, fluorescence;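 active means 35 to 45% if threefold the growth effect, above 45% if 1.5-fold the growth effect; inactive means the rest, general growth blockers included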;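 further: wells of about 50 µL received 100 nL stock; 0% = vehicle wells and 100% = reference inhibitor wells; whole bacteria with a GFP reporter of the hypoxia response; strong numbers were not always called active; many hits fall short of the cut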
Autofluor counter: compound fluorescence in toxin protease inhibitor counterscreen | compound autofluorescence counterscreen, microsphere flow cytometry; stronger effect = higher value | fluorescence intensity (test concentration not listed) | hit rate 3.1% among 360,000;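 active means at least 3 SD above the mean of all compounds, about 16000 in these data; inconclusive means too few beads counted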;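 further: 100 nL of 1 mM stock went into each well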
ugtP null kill: growth inhibition of S. aureus ugtP deletion strain. S. aureus RN4220 ugtP deletion, OD600 growth, 16 h; some inactives read as strong as hits. growth inhibition, % (no concentration beside the values). hit rate 0.54% among 330,000;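 active means z-score under -3 and OD600 up to 0.15 on both plates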;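 further: plate controls were untreated wells for no effect and antibiotic for full effect; wells of about 80 µL received 100 nL stock; the first replicate is given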
RN4220 kill: S. aureus RN4220 growth inhibition; OD600, 16 h; inhibition, % (test concentration not listed); hit rate 0.33% among 330,000; AID 1259311;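 active means z-score of -3 or lower and OD600 up to 0.18 on both plates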;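 further: plate controls were untreated cells for no effect and reference antibiotic for full effect; stock transfer was 100 nL into about 80 µL; one replicate is shown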
PrP UTR inh: suppresses PrP 5' UTR mRNA reporter expression; cell-based PrP 5' UTR mRNA reporter, plate reader; inhibition, % (test concentration not listed); hit rate 0.35% among 340,000; AID 488862;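 active means every replicate at 50% or more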;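 further: 0 = median of the neutral control wells; tested in H4 reporter cells; numbers are from one replicate; inactives centre near -14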
BJeLR viability: kills HRASV12-expressing BJeLR cells; hit rate 0.17% among 300,000; BJeLR (HRASV12) viability, CellTiter-Glo ATP luminescence, 48 h; reference of the scale not given here; AID 1554; inhibition, % (test concentration not listed);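 active means replicate mean above 50%; inconclusive means above 50% but judged a plate artefact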;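 further: 50 nL library stock added to about 25 µL; numbers are from one replicate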
Mtb hypoxia inh growth: recorded beside Mtb hypoxia inh, whose call it bears; growth inhibition, %; measured here: M. tuberculosis growth (absorbance);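 0% = vehicle and 100% = reference antibiotic; read after six days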
An asterisk follows results filed as active; ? = inconclusive; / = not tested or not shown; & = joins results of further samples. Outcome played no part in choosing rows (roughly 4% active in at least one column).

SMILES	Mtb hypoxia inh	Mtb hypoxia inh growth	Autofluor counter	ugtP null kill	RN4220 kill	PrP UTR inh	BJeLR viability
CCCSc1nnc2c(n1)OC(c1cccn1C)N(C(C)=O)c1ccccc1-2 (stereo not given)	/	/	3701	4	2.5	-2	-23
CSc1ccc(S(=O)(=O)N2CCC(C(=O)NC3CC3)CC2)cc1	-6	-2	3612	2	1.5	1	-4
OCCN(CCO)Cc1ccc(Br)cc1	/	/	7629	/	/	-25	4
Cc1cc(C)n2c(=S)[nH]nc2n1	/	/	2714	11	3.3	-12	8
CCCC1NC(=S)NC(C)=C1C(C)=O (stereo not given)	6	5	4605	-2	7.3	1	1
CCOc1cc(NS(=O)(=O)CC)c(OCC)cc1NC(=O)c1ccco1	0	10	16044	6	6.0	-7	6
C/C(=N\Nc1cc(C)nc(-c2ccccc2O)n1)c1ccccc1O	/	/	4434	/	/	-8	-6
Cc1nc(N2CCC(C)CC2)c2c(C)c(C(=O)Nc3cc(F)ccc3C)sc2n1	0	0	2663	-15	15	-27	-7
O=C(NC1(C(F)(F)F)C(=O)Nc2c1c(=O)[nH]c(=O)n2-c1ccc(F)cc1)c1cccnc1 (stereo not given)	-1	6	18307*	-4	1.2	-33	-6
COc1ccc(NC(=O)c2cc3ccccc3cc2O)cc1	2	-3	2862	-11	5.0	-68	3
CC1CCCC(C)N1C(=O)Cn1cc(C#N)c2ccccc21 (stereo not given)	-12	-9	4407	-3	0.1	-15	2
CC(=NNC(=O)c1ccco1)c1ccc(NC(=O)c2ccc(F)cc2)cc1	3	6	/	5	-0.1	/	/
COc1ccc(C(=O)Nc2cc(C(F)(F)F)ccc2-n2cncn2)cc1	-4	-5	4391	14	4.6	-10	-9
O=C1CCCN1CC(O)CS(=O)(=O)c1ccc(Cl)cc1 (stereo not given)	1	-5	22765*	0	2.4	-11	-3
CCOc1ccccc1OCCn1ncc2ccc(OC)c(OC)c2c1=O	/	/	4170	3	3.1	-16	0
Cc1cccc(NS(=O)(=O)c2ccc3nc(-c4ccccc4)[nH]c3c2)c1C	-2	7	2080	-8	7.9	-7	-6
O=C(CSc1nnc(-c2ccccc2Br)o1)N1CCN(C(=O)c2ccco2)CC1	-1	-2	9652	-17	3.1	-7	-1
Cc1cc(=O)oc2cc(OCC(=O)Nc3ccc(N4CCC(C)CC4)cc3)ccc12	10	15	4953	2	12	-2	1
Cc1nnsc1-c1c(C(=O)N2CCOCC2)c(C)nn1-c1ccc(Cl)cc1	-5	8	4629	-3	-1.9	-5	-3
CC1Sc2ccc(S(=O)(=O)N3CCC(C(=O)N(C)Cc4ccco4)CC3)cc2NC1=O (stereo not given)	7	17	5872	5	1.2	-5	1
CCOP(=O)(OCC)c1nc(-c2ccc(C)cc2)oc1N1CCOCC1	8	11	9364	-1	0.5	-43	4
CCCCn1c(N)c(N(Cc2ccccc2OC)C(=O)C(C)C)c(=O)[nH]c1=O	3	3	6097	2	-1.1	-4	-7
CC(C)CCC(O)[C@](C)(O)C1CC[C@@]2(O)C3=CC(=O)C4CC(O)C(O)C[C@]4(C)C3CC[C@]12C (stereo not given in full)	8	5	/	9	15	/	/
Cn1nc([N+](=O)[O-])nc1Sc1cccc2cccnc12	-4	10	4388	28	2.4	-19	2
O=C(NCCc1ccccn1)c1ccc2nc(Cc3ccccc3F)oc2c1	7	9	5974	0	-1.3	-72	3
Cc1ccn2cc(C(=O)Nc3cccc(C(=O)NC4CC4)c3)nc2c1	8	1	/	4	0.3	-22	/
O=C(NCc1ccccc1CN1CCCC1)c1cccc(S(=O)(=O)N2CCOCC2)c1	9	-3	4242	1	1.8	-13	/
NC1=NC[C@H](c2ccccc2)N1CC1CCCCC1	/	/	4398	/	/	-12	1
Oc1cnn(-c2ccccc2)c1	/	/	2218	-4	0.8	9	9
CCn1c(C)c(C(C)=O)cc(C#N)c1=O	6	0	2186	-1	3.0	-3	-7
Cc1cccc(C(=O)OCC(=O)Nc2ccccc2C(=O)NC2CC2)c1	7	-4	6789	17	4.4	-9	/
CCOc1ccc2nc(COC(=O)c3ccco3)c(C(C)=O)[n+]([O-])c2c1	/	/	4858	-1	-1.2	-10	-4
Cc1ccc(C=Nn2nnnc2N)o1	6	-2	/	0	4.1	/	/
O=C(Nc1ccc(Cl)cc1)c1cc(S(=O)(=O)Nc2ccccn2)ccc1Cl	15	12	2995	6	-0.8	-27	8
COC(=O)C1=C(C)NC(=S)NC1c1ccc(OCC(=O)N2CC(C)OC(C)C2)c(OC)c1 (stereo not given)	8	-4	5416	0	5.4	-13	/
Cc1ccc(C)c(OCCSc2nnc(C)c(=O)[nH]2)c1	-6	-7	4316	-4	1.6	-62	1
Cc1nnc(NC(=O)c2ccc(C)c(S(=O)(=O)N3CCOCC3)c2)s1	2	4	8197	7	6.5	-22	17
O=C(CSc1ccccn1)Nc1ccc2c(c1)CCC2	2	-1	5109	6	2.9	-47	-14
COc1cccc(C2c3c(-c4cc(Cl)c(C)cc4O)n[nH]c3C(=O)N2Cc2cccnc2)c1 (stereo not given)	-4	2	3112	20	19	2	2
CSc1ccc(/C=N/n2c(C3CCCCC3)n[nH]c2=S)cc1	/	/	4130	/	/	-10	4

6 entries from above in another layout:
Molecule,Mtb hypoxia inh,Mtb hypoxia inh growth,Autofluor counter,ugtP null kill,RN4220 kill,PrP UTR inh,BJeLR viability
COC(=O)C1=C(C)NC(=S)NC1c1ccc(OCC(=O)N2CC(C)OC(C)C2)c(OC)c1 (stereo not given),8,-4,5416,0,5.4,-13,/
CC1CCCC(C)N1C(=O)Cn1cc(C#N)c2ccccc21 (stereo not given),-12,-9,4407,-3,0.1,-15,2
Cc1cc(C)n2c(=S)[nH]nc2n1,/,/,2714,11,3.3,-12,8
Cc1cccc(NS(=O)(=O)c2ccc3nc(-c4ccccc4)[nH]c3c2)c1C,-2,7,2080,-8,7.9,-7,-6
CC1Sc2ccc(S(=O)(=O)N3CCC(C(=O)N(C)Cc4ccco4)CC3)cc2NC1=O (stereo not given),7,17,5872,5,1.2,-5,1
O=C1CCCN1CC(O)CS(=O)(=O)c1ccc(Cl)cc1 (stereo not given),1,-5,22765*,0,2.4,-11,-3

Copied from the list.
Entry for `O=C(NCc1ccccc1CN1CCCC1)c1cccc(S(=O)(=O)N2CCOCC2)c1` under Mtb hypoxia inh growth: -3
Entry for `O=C(Nc1ccc(Cl)cc1)c1cc(S(=O)(=O)Nc2ccccn2)ccc1Cl` under Autofluor counter: 2995

Additional structures follow.
SMILES	Mtb hypoxia inh	Mtb hypoxia inh growth	Autofluor counter	ugtP null kill	RN4220 kill	PrP UTR inh	BJeLR viability
O=C1CC(N(O)C2CC(=O)N(Cc3ccccc3)C2=O)C(=O)N1Cc1ccccc1 (stereo not given)	-2	-1	3845	0	1.0	-5	0
S=C1NC2=C(CCCC2=C2SCCS2)C(c2ccccc2)N1 (stereo not given)	3	2	4171	9	0.3	-17	0
COc1ccccc1P(=O)(Cc1ccccc1[N+](=O)[O-])c1ccccc1 (stereo not given)	-1	5	2870	19	0.7	-3	16
COCCCNC(=O)c1cc(-c2cccnc2)nc2ccccc12	0	8	3150	-3	1.3	-4	0
S=C(NCc1ccccc1)NCc1ccco1	2	2	4334	-3	-2.0	-5	2
O=C(N/N=C/c1ccccc1OC(F)F)C1=COCCO1	/	/	4851	/	/	-21	0
O=C(O)CNC(=S)N(Cc1cccs1)C1CCCCC1	9	7	2044	3	5.1	-6	3
O=c1cc(CN2CCN(c3ccccn3)CC2)nc2sccn12	11	1	2719	4	4.4	-19	1
CC1(C)c2ccccc2N2CC(=O)NC21/C=C/c1ccco1 (stereo not given)	16	15	3530	-16	-14	-3&-13	8
COc1c(O)ccc(C2NC(=O)NC(C)=C2C(=O)Nc2ccccc2C)c1[N+](=O)[O-] (stereo not given)	6	4	2459	5	3.0	-19	9
CC1(C)Cc2c(sc(NC(=O)Cc3ccccc3)c2C#N)CO1	-8	9	5170	0	-2.9	-8	3
COc1ccc(CCNC(=O)COC(=O)c2ccc(Br)o2)cc1OC	-7	-9	8584	-2	-1.4	-10	3
CCC(CC)c1nnc(NC(=O)Cc2ccccc2[N+](=O)[O-])s1	-4	-6	4122	12	4.4	-22	-1
CC(=O)Nc1ccc(S(=O)(=O)N(C)CC(=O)N/N=C/c2cccc(O)c2)cc1	/	/	4870	/	/	-8	8
Cc1ccccc1N(CC(=O)Nc1ccc(S(=O)(=O)N2CCOCC2)cc1)S(C)(=O)=O	9	-1	4568	2	5.9	-7	-4
Cc1cc(NC(=O)CCl)n(-c2nc3ccccc3s2)n1	21	14	2387	-6	0.8	-38	10
CCCCn1c(N)c(N(CC(C)C)C(=O)c2cc3c(s2)CCC3)c(=O)[nH]c1=O	3	-3	4990	5	0.8	-8	-14
COc1cccc(/C=N/NC(=O)c2cnccn2)c1O	/	/	4258	/	/	-23	-4
CCOc1ccc(NC(=O)C(C)NC(=O)c2ccccc2Cl)cc1S(=O)(=O)N1CCCC1 (stereo not given)	1	11	?	2	1.1	/	/
CCOC(=O)c1ccc(-c2ccc(C(=O)Nc3cccnc3)o2)cc1	/	/	2588	-11	0.6	-23	-2
Brc1ccc(-c2noc(CCc3ccccc3)n2)o1	/	/	6758	3	3.7	-34	-7
Cc1ccccc1OCC(=O)NN=Cc1cc2ccccc2nc1Cl	1	19	/	-10	15	/	/
O=C1C(Cl)=C(NCCCO)C(=O)c2ccccc21	/	/	2142	9	40	-15	1
CCC(C(=O)Nc1ccc(C(=O)O)cc1NC(=O)C(CC)c1ccccc1)c1ccccc1 (stereo not given)	6	2	3608	-3	0.5	-16	-6
Fc1ccc(CSc2nnc(-c3ccco3)o2)cc1	/	/	6743	7	6.4	-47	-1
CCOc1cccc(-c2c(C(=O)N/N=C/c3c(F)cccc3Cl)nnn2-c2nonc2N)c1	/	/	4600	/	/	-12	-3
O=C(CNC(=O)Cc1ccccc1)NCC(=O)OCC(=O)c1cccc2ccccc12	9	9	9833	-10	4.6	-30	2
O=C(CSc1ccccc1)Nc1nccs1	10	9	2041	9	1.5	-20	0
COc1ccc(-c2cc(C(=O)NCCCN3CCOCC3)on2)cc1OC	13	1	4245	15	5.5	12	15
COCCNC(=O)c1ccc2c(c1)NC(=O)CS2	0	3	19046*	1	2.1	-45	-3

Some of the entries so far, comma-delimited:
structure,Mtb hypoxia inh,Mtb hypoxia inh growth,Autofluor counter,ugtP null kill,RN4220 kill,PrP UTR inh,BJeLR viability
CCOc1cccc(-c2c(C(=O)N/N=C/c3c(F)cccc3Cl)nnn2-c2nonc2N)c1,/,/,4600,/,/,-12,-3
O=C(CNC(=O)Cc1ccccc1)NCC(=O)OCC(=O)c1cccc2ccccc12,9,9,9833,-10,4.6,-30,2

Whole records, looked up by structure. Order of values: Mtb hypoxia inh, Mtb hypoxia inh growth, Autofluor counter, ugtP null kill, RN4220 kill, PrP UTR inh, BJeLR viability
COc1ccc(-c2cc(C(=O)NCCCN3CCOCC3)on2)cc1OC reads 13, 1, 4245, 15, 5.5, 12, 15
CCC(C(=O)Nc1ccc(C(=O)O)cc1NC(=O)C(CC)c1ccccc1)c1ccccc1 (stereo not given) reads 6, 2, 3608, -3, 0.5, -16, -6
O=C1C(Cl)=C(NCCCO)C(=O)c2ccccc21 reads /, /, 2142, 9, 40, -15, 1
O=C(CSc1ccccc1)Nc1nccs1 reads 10, 9, 2041, 9, 1.5, -20, 0
CCOc1cccc(-c2c(C(=O)N/N=C/c3c(F)cccc3Cl)nnn2-c2nonc2N)c1 reads /, /, 4600, /, /, -12, -3
